High-throughput results as filed in PubChem BioAssay.
Mtb bLac sens: beta-lactam sensitization of Mtb H37Rv; M. tuberculosis H37Rv growth with meropenem, percent inhibition; hits of this screen are not shown here; inhibition, % at 25 µM; 0.27% of 330,000 active;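 active means about 74% or more and at least 40 points above the plate without the antibiotic, then above 30% in a dose series; inconclusive means first-round hits that could not be retested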;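 further: growth measured after seven days incubation then overnight dye step; 0% = bacteria only wells and 100% = bacteria with antibiotic; twin plates without the antibiotic show which effects depend on it; some results filed as inactive read as strong as hits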
Arbovirus inh: antivirals against arbovirus infection | arbovirus infection cell-based antiviral screen | inhibition, % at 10 µM | 0.37% of 200,000 active | AID 1251;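 active means inhibition from about 30%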;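 further: bluetongue infection of BSR cells; cell survival read as ATP light after 72 h; 0% = infected wells without compound and 100% = uninfected wells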
RecA splice inh: inhibitors of M. tuberculosis RecA intein splicing. cell-free RecA intein splicing, fluorescence. inhibition, %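 (about 9 µM by stock and volumes)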. 0.75% of 290,000 active; in the data active means inhibition above about 30%; inconclusive means no clear call, values can overlap the other calls;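 further: 0% = vehicle wells and 100% = reference inhibitor control wells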
Target sequence (P9WHJ3 whole entry, looked up, canonical isoform): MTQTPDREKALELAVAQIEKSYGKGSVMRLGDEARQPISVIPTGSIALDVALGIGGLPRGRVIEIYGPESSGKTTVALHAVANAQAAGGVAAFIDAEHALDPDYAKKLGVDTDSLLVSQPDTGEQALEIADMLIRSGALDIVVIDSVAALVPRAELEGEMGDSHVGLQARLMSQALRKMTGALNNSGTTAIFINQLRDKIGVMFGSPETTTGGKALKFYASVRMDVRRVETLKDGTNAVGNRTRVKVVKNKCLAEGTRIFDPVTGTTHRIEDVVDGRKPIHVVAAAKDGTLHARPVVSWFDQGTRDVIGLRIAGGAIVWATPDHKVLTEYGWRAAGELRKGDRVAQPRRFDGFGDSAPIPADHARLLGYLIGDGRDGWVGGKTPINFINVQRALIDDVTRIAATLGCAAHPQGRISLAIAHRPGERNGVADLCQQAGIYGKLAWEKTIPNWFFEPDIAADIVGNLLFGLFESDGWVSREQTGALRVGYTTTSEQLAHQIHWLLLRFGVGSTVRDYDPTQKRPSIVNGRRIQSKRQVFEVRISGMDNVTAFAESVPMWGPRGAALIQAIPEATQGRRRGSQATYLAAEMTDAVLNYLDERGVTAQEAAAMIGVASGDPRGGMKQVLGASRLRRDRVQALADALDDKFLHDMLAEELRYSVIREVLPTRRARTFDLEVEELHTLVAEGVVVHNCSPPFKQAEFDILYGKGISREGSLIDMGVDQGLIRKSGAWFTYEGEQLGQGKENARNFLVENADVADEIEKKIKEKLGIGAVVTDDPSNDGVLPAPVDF
YopH PTP inh: blocks Yersinia enterocolitica YopH tyrosine phosphatase | fluorescence Ex485/Em525 | inhibition, %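 (about 10 µM by stock and volumes)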 | 0.16% of 140,000 active;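 active means inhibition of 50% or more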;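 further: controls were vehicle for no effect and minimum signal wells for full effect; inactives centre near -20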
Mtb growth: M. tuberculosis H37Rv growth inhibitors, H37Rv strain (AID 1626). M. tuberculosis H37Rv growth inhibition; higher % means a stronger effect. one-dose inhibition, % at 10 µM; IC50 in µM for titrated hits. 0.95% of 220,000 active;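 active means confirmed in a dose series; inconclusive means inhibition above 80% but not taken into the dose series; inactive means below 80% or under 30% at every dose of the series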;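 further: bacteria incubated seven days before Alamar blue readout; 0% = bacteria only wells and 100% = bacteria with antibiotic wells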
Arbovirus inh repeat: recorded beside Arbovirus inh, whose call it bears; inhibition, %; measured here: 10K subset replicate screen; many hits read low in the repeat;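 first of two repeat runs on a subset; 0% = infected and 100% = uninfected wells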
* marks the source's active call; other numbers are inactive results; ? = inconclusive; / = not tested or not shown.

SMILES	Mtb bLac sens	Arbovirus inh	RecA splice inh	YopH PTP inh	Mtb growth	others
Cc1cc2c(cc1[N+](=O)[O-])NC(CNC(C)C)CC2 (centres undefined)	0	/	-0.2	/	/
Cc1ccc(-c2nn(-c3ccccc3)cc2/C=N/NC(=O)CSc2nnc(C)n2-c2ccccc2)cc1	85	-33	1.1	-21	6%
CCOC(=O)NCc1ccccc1	-9	/	-1.2	/	/
CC(C)CNC(=O)[C@H](Cc1ccccc1)NC(=O)c1cccs1	2	/	1.0	/	/
Cc1nn(CCC(=O)NNC(=S)Nc2ccccc2)c(C)c1Br	-5	5	-0.8	-17	-1%
O=C(CCc1nnc2ccc(NCc3ccco3)nn12)Nc1ccccn1	3	/	-0.8	/	/
COc1ccc(OCC(=O)Nc2cccc3cccnc23)cc1	51	13	7.3	-16	-5%
Cc1ccnn1C(C)C(=O)O (centres undefined)	-1	4	0.3	/	-4%
CN(c1ccccc1)S(=O)(=O)c1ccc(C(=O)OCC(=O)NCc2cccs2)cc1	-9	/	-0.6	/	-7%
O=C(/C=C/c1cccc([N+](=O)[O-])c1)Nc1ccc(NC(=O)c2cccs2)cc1	1	-15	-1.4	-17	3%
COc1ccccc1C(=O)NC(=O)COC(=O)C1(C)CC1(Cl)Cl (centres undefined)	-5	/	1.5	/	/
Cc1ccc(Nc2nc(Nc3ccc(C)cc3)nc(SC3=NCCS3)n2)cc1	-4	-34	4.1	-21	/
O=C(c1cc2ccccc2oc1=O)N(Cc1ccccc1)C1CCS(=O)(=O)C1 (centres undefined)	6	14	-0.1	1	-8%
COc1ccc(OC)c(-c2csc(NC(=O)Cc3ccccc3)n2)c1	59	/	13	/	/
O=c1[nH]c(CN2CCN(c3ccccc3O)CC2)nc2ccccc12	-4	-1	-3.2	-32	-4%
CCN1C(=NCCc2ccccn2)N[C@@H](c2cccc(F)c2)C(C(=O)OC)=C1C	-11	/	-1.4	/	/
CC(C)=NOc1nc(N(C)C)nc(N2CCOCC2)n1	6	/	0.1	/	-7%
COc1ccccc1-n1c(SCC(=O)N2CCc3ccccc32)nc2c(c1=O)SCC2	-3	5	-1.4	-49	11%
CC(=O)C1=C(C)NC(C)=C(C(C)=O)C1c1cn(-c2ccccc2)nc1-c1cccs1	14	-9	-15	-29	5%
CC(=O)Nc1ccc(S(=O)(=O)NCCc2csc(C)n2)cc1	4	2	-0.4	-6	-4%

2 compounds drawn at random from those above, as already listed:
SMILES	Mtb bLac sens	Arbovirus inh	RecA splice inh	YopH PTP inh	Mtb growth	others
CC(=O)C1=C(C)NC(C)=C(C(C)=O)C1c1cn(-c2ccccc2)nc1-c1cccs1	14	-9	-15	-29	5%
COc1ccc(OCC(=O)Nc2cccc3cccnc23)cc1	51	13	7.3	-16	-5%

Gathered by group, the entries above containing two or more sulfur atoms
SMILES	Mtb bLac sens	Arbovirus inh	RecA splice inh	YopH PTP inh	Mtb growth	others
CN(c1ccccc1)S(=O)(=O)c1ccc(C(=O)OCC(=O)NCc2cccs2)cc1	-9	/	-0.6	/	-7%
Cc1ccc(Nc2nc(Nc3ccc(C)cc3)nc(SC3=NCCS3)n2)cc1	-4	-34	4.1	-21	/
COc1ccccc1-n1c(SCC(=O)N2CCc3ccccc32)nc2c(c1=O)SCC2	-3	5	-1.4	-49	11%
CC(=O)Nc1ccc(S(=O)(=O)NCCc2csc(C)n2)cc1	4	2	-0.4	-6	-4%

More results follow.
SMILES	Mtb bLac sens	Arbovirus inh	RecA splice inh	YopH PTP inh	Mtb growth	others
O=C(CCCn1c(SCC(=O)NCCc2ccccc2)nc2ccccc2c1=O)NCC1CCCO1 (centres undefined)	-5	-4	-5.1	/	-3%
C=CCSc1nnc2c(n1)[nH]c1c(C)cccc12	-5	7	4.0	-8	-3%	Arbovirus inh repeat=-5
Cc1cc(C)nc(N(C#N)Cc2cccc3ccccc23)n1	6	-7	7.9	0	8%
Cc1ccccc1Nc1nnc(C)c(=O)[nH]1	-3	4	0.1	-23	-2%
O=C(/C=C(\O)c1ccccc1)C(=O)NNC(=O)c1ccccc1[N+](=O)[O-]	-9	/	-0.3	/	/
O=C(CNS(=O)(=O)c1ccccc1)NCC(=O)OCc1ccc(Br)cc1	-4	1	-4.3	/	8%
CC1CN(S(=O)(=O)c2cccc(C(=O)Nc3ccccc3N3CCCC3)c2)CC(C)O1 (centres undefined)	-6	/	2.5	/	/
COc1cc(NC(=O)CN2CCCCCC2)cc(OC)c1	5	/	-1.5	/	/
Cc1cc(C)c(C)c(OCC(O)CN2CCN(c3ccccn3)CC2)c1 (centres undefined)	-4	/	1.9	/	/
Cc1cc(S(=O)(=O)N2CCCC2C(=O)N2CCOCC2)c(C)cc1Cl (centres undefined)	4	6	2.0	-16	-14%
COc1cc(C)ccc1OCc1cc(C(=O)N(C)CCCN2CCOCC2)no1	5	/	-0.9	/	/
O=C(CC1SC(N2CCCC2)=NC1=O)Nc1ccc(C(=O)NCCc2ccc(F)cc2)cc1 (centres undefined)	4	/	-0.9	/	/
CSCCC1Nc2ccc(S(=O)(=O)N3CCOCC3)cc2NC1=O (centres undefined)	/	22	/	/	5%
O=C(COC(=O)COc1cccc(C(F)(F)F)c1)NC1CCCC1	3	/	-2.7	/	/
CN(CC(=O)Nc1ccccc1Cl)C(=O)c1cc(-c2cccs2)nn1-c1ccccc1	3	/	5.4	/	/
CC(C)(C)C(=O)NC(=S)Nc1sc2c(c1C(N)=O)CCC2	-6	0	-7.1	/	8%
Cc1ccc(C(=O)CSc2nc3ccccc3c(=O)[nH]2)cc1	16	13	-0.2	-18	1%
O=C(CN1CCC(NC(=O)c2ccccc2F)CC1)NCc1ccc(F)cc1	94	6	1.0	-13	10%
O=C(N/N=C/c1ccc[nH]1)c1ccccc1O	21	-5	-2.7	/	-7%
O=C(O)CCCCCCNS(=O)(=O)c1ccccc1	-5	1	-0.6	-13	-1%
Cc1ccc(C(=O)NC2CCN(C(=O)NCc3ccccc3)CC2)cc1	-8	/	-1.4	/	/
O=C(Nc1nc2c(s1)CN(Cc1ccccc1)CC2)C1CCC1	15	-4	-15	/	5%
Cc1c(OC(C)C(=O)NCc2ccccn2)ccc2c3c(c(=O)oc12)CCCC3 (centres undefined)	99	/	1.7	/	/
CCOC(=O)c1cn2nc(-c3ccc(OCC)cc3)cc2nc1C1CCN(C(=O)OC(C)(C)C)CC1	-9	4	-0.9	-23	1%
COc1cc(C(=O)OCC(=O)Nc2cc(-c3cc(C)c(C)cc3C)nn2-c2ccccc2)cc(OC)c1OC	-2	-5	-0.6	-22	1%
Nc1c(C(=O)NC2CCCC2)c2nc3ccccc3nc2n1N	1	1	-12	-11	-4%
c1ccc(CCN2CCC(N3CCN(c4ccccc4)CC3)CC2)cc1	-7	-8	0.5	-30	-6%
O=C(CN1C(=O)COc2ccc(S(=O)(=O)N3CCCC3)cc21)N1CCCC1	-8	/	-1.6	/	5%
CCN(CC)c1ccc(/C=C/[N+](=O)[O-])cc1	8	-24	-2.1	/	-2%
COc1cccc(-c2ccc(-c3noc(-c4cccs4)n3)c(OC)n2)c1	21	3	2.2	-7	-7%
CCC(C)N(C(=O)COC(=O)c1[nH]c(C)c(C(C)=O)c1C)C1CCS(=O)(=O)C1 (centres undefined)	-1	/	-1.3	-28	-4%
O=C(CCn1c(=O)oc2cc(Cl)ccc21)Nc1ccc(N2CCOCC2)cc1	-3	/	-1.6	/	/
CC(=O)N1c2c(cc(Br)cc2S(=O)(=O)N2CCOCC2)CC1C (centres undefined)	-1	0	-0.4	-41	-22%
CSC1=NCCN1C(=O)Cc1ccc(F)cc1	0	3	-1.1	-44	-10%	Arbovirus inh repeat=3
O=C(OCc1nnc(-c2ccccc2)o1)C1CC(=O)N(c2ccccc2)C1 (centres undefined)	-4	/	-8.8	/	/
CC(C)c1ccc2[nH]c3c(c2c1)[C@@H]1CCN2C(=O)CCC[C@H](C3)[C@H]12	13	/	2.6	/	/
CCCS(=O)(=O)N1CCCC(C(=O)c2ccccc2OC)C1 (centres undefined)	-3	-7	2.7	/	-1%
O=C(COc1ccc(Nc2ccccc2)cc1)Nc1ccncc1	99	/	8.5	/	/
N#Cc1ccc(-c2ccc(Cl)cc2)nc1Oc1ccc(F)cc1	6	-9	2.2	-7	0%
O=C(NC1=NCCS1)C1CC2CCC1C2 (centres undefined)	-4	9	-2.8	-17	-7%	Arbovirus inh repeat=3
O=C1CCCC(=O)C1C(=O)C1CCN(S(=O)(=O)c2ccccc2)CC1	-7	1	-2.7	/	-1%
CCOc1ncccc1C(=O)OCC(=O)c1ccc[nH]1	-5	4	1.2	-35	-8%
COC(=O)Cn1nc(-c2ccccc2)c2cc(Cl)ccc21	100	9	2.8	-11	32%
CCN(CC)CCNC(=O)Cn1cnc2sc(C)c(S(=O)(=O)N3CCN(c4ncccn4)CC3)c2c1=O	-2	-3	6.2	/	-1%
CCOC(=O)CN1C(=O)C2(OCCCO2)c2ccccc21	?	6	3.4	-24	1%
C[n+]1ccc(/C=C/c2c[nH]c3ccc(F)cc23)cc1	3	/	-2.8	/	/
CCCN(CCC)CCCNC(=O)CS(=O)Cc1nc(-c2ccc(OC)c(OC)c2)oc1C (centres undefined)	?	4	2.1	-17	-10%
COc1ccc(N2CCN(C(CNC(=O)C(=O)NCCCn3ccnc3)c3ccco3)CC2)cc1 (centres undefined)	-7	4	-7.1	/	-1%
CCCn1nnc(NC(=S)NC(=O)Cc2ccccc2)n1	72	-2	-2.5	/	?
CN(C)S(=O)(=O)c1cccc(-c2nnc(SCc3cc(Cl)cc4c3OCOC4)n2N)c1	-6	7	3.0	-20	0%
CCSC(C)CC1C/C(=N/O)c2c(C)noc2C1 (centres undefined)	-1	-2	-6.2	-25	-1%
CCC(CC)C(=O)c1c[nH]c(C(=O)NN)c1	14	-12	0.2	/	-10%
CNC(=O)Oc1ccc(N(C)C)cc1C(C)C	3	/	-0.7	/	-3%
Cc1ccc(N(CCCCN2C(=O)c3ccccc3C2=O)C(=O)c2ccc(Cl)s2)cc1	4	12	-0.4	-10	3%
CN1C(=O)/C(=C/c2cc(C(C)(C)C)c(O)c(C(C)(C)C)c2)NC1=S	-5	5	-0.8	/	-5%
COc1cccc(S(=O)(=O)NCc2ccc(C(=O)Nc3ccc(Cl)cc3)cc2)c1	9	6	0.1	-24	-6%
CCOC(=O)c1cnn(-c2nc(SC)nc3sc4c(c23)CCCC4)c1N	21	1	7.3	-25	4%
CC1Cc2ccccc2N1C1=CC(=O)CC(C)(C)C1 (centres undefined)	3	3	-2.1	/	8%
CN1CCN(CCNC(=O)Nc2ccccc2C(F)(F)F)CC1	0	-1	-0.4	-14	-2%
Cc1cc(C)c2c(N)c(S(=O)(=O)Cc3ccccc3)sc2n1	-8	0	-2.6	-18	/
Going on with the list.
SMILES	Mtb bLac sens	Arbovirus inh	RecA splice inh	YopH PTP inh	Mtb growth	others
CCCCCCNS(=O)(=O)c1ccc(NC(=O)C2CCCO2)cc1 (centres undefined)	-6	4	3.0	-16	4%
CCOc1cccc(/C=N/NC(=O)c2ccc3c(c2)OCCO3)c1O	?	/	0.1	/	/
COc1ccc(N2C(=O)C3CCCN3C2c2ccc(Cl)cc2)cc1 (centres undefined)	-2	14	0.3	-10	-4%	Arbovirus inh repeat=6
Cc1cccc(Cn2ccc(-c3ccc(Cl)cc3)c(C#N)c2=O)c1	4	-7	-6.6	-37	-3%
O=C(NCCCN1CCN(c2ccc(F)cc2)CC1)Nc1ccc([N+](=O)[O-])cc1	-4	0	-0.9	/	4%
CCC1=NN(C(=O)Cc2ccc([N+](=O)[O-])cc2)C(O)(c2ccc(Br)cc2)C1 (centres undefined)	2	0	6.7	-14	8%
COCCn1nnnc1C(c1cc2cc(C)ccc2[nH]c1=O)N1CCCCCC1 (centres undefined)	-5	4	-3.9	-29	-2%
CCN(CC)C(=O)c1ccc(NC(=O)c2ccc(-c3nn(C)c(=O)c4ccccc34)cc2)cc1	-3	-3	-0.9	/	5%
COc1ccc2c(c1)CCc1cn[nH]c1-2	2	/	-1.0	/	/
Cc1ccnc(NC(=O)c2ccoc2C)c1	-2	-2	-4.6	-4	8%
Cc1ccc(SC(=O)c2c(C)noc2-c2cc(C)on2)cc1	-1	/	61*	/	-3%
Cc1cccc2cc(CN(C(=S)NCC(C)C)C3CCCC3)c(=O)[nH]c12	-4	-8	-0.5	-12	10%
CCCCNS(=O)(=O)c1ccc2nc(-c3cccnc3)cc(C(=O)NCCCOC)c2c1	11	-7	-0.3	/	-2%
Clc1ccc(C[n+]2cc(-c3ccccc3)n3c2CCC3)cc1	-11	/	-1.9	/	-7%
C=CCOC(=O)COc1ccc2c(C)c(CC)c(=O)oc2c1	99	-4	-1.6	15	66%
NC(=O)C1(N2CCCCC2)CCN(C(=S)Nc2ccc(S(N)(=O)=O)cc2)CC1	4	1	-3.5	/	1%

An excerpt; rates above refer to the full screens.
